SARS PLpro yeast: blocks SARS-CoV papain-like protease in a yeast assay; S. cerevisiae expressing SARS-CoV PLpro, growth rescue; control for the full effect not named in the record; Potency, µM (doses to about 32.9 µM), for inactives: top-dose activity, positive = growth rescue; 330,000 tested, 0.19% active; active means well fitted rising curve with a large enough effect; inconclusive means small, poorly fitted or top-dose-only effect; inactive means no such curve, though single readings can be large or run the other way; note: 0% is about no effect; nearly all actives have a fitted effect of over 55% in size; growth read by luminescence after 48 h
RE007 growth inh: less growth of the S. pombe RE007 Vpr strain | Potency, µM (highest dose often 92.2 µM), for inactives: top-dose activity change, negative = less growth | AID 651644 | 360,000 tested, 0.21% active | S. pombe RE007 Vpr strain, BacTiter-Glo ATP luminescence, 24 h; control for the full effect not named in the record; active = well fitted falling curve with a large enough effect; inconclusive = small, poorly fitted or top-dose-only effect; inactive = no such curve, though single readings can be large or run the other way;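 note: % is set by controls: 0 for no effect and ±100 for the full control effect; nearly all actives have a fitted effect of over 50% in size; the assay follows cell death caused by Vpr and the record does not say whether a fall means rescue or toxicity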
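Fission yeast RE007 carrying one integrated HIV-1 vpr copy, seeded at OD 0.01 in PMG+AL medium with 23 nL pinned compound. Grown 24 h at 30 degrees; viability read by BacTiter-Glo luminescence after 5 min.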
2A StopGo: lowers the luciferase signal of an FMDV 2A StopGo reporter; AID 1159524; 410,000 tested, 1.2% active; human cells with a luciferase reporter of 2A StopGo recoding; control for the full effect not named in the record; Potency, µM (titrated, usually from 57.9 µM), inactives show at the highest dose signal change, negative = less light; active = well fitted falling curve with a large enough effect; inconclusive = small, poorly fitted or top-dose-only effect; inactive = no such curve, though single readings can be large or run the other way; tested in HEK293T cells; note: % is set by controls: 0 for no effect and ±100 for the full control effect; nearly all actives have a fitted effect of over 45% in size; luciferase light after 4 h
* marks the source's active call; other numbers are inactive results; ? = inconclusive; [ ] = another dose, or the depositor's remark. Potency is the fitted concentration of half-maximal effect.

canonical_smiles | RE007 growth inh | SARS PLpro yeast | 2A StopGo
CC1(C)CC2CC(C)(CN2C(=O)COC(=O)c2ccc(O)cc2O)C1 (stereo not given) | -10% | -8% | -29%
C=CCN1C(=O)c2ccc(C(=O)OCC(=O)Nc3ccccc3OC)cc2C1=O | 3% | 1% | -18%
Cc1ccc(S(=O)(=O)N2CCC(C(=O)OCCOc3cccc(C)c3)CC2)cc1 | 8% | -5% | -5%
COc1ccc(C(C)(C)C)cc1NC(=O)CCc1c(C)noc1C | -10% | 0% | 5%
CCOc1ncccc1C(=O)Nc1nc(C(C)(C)C)cs1 | -8% | -1% | 24%
Cc1cc(NC(=O)CSCC(=O)OCC(=O)c2cccc(Br)c2)no1 | 0% | 1% | 0%
COc1ccc(C(C)=O)cc1CSC(=N)N | 1% | 16% | -15%
Cc1ccc(NC(=O)CCN2C(=O)NC3(CCCC3)C2=O)c(C)c1 | 6% | 6% | -9%
CCCCC[C@@H]1C=C(C(=O)O)[C@H](c2ccc(F)cc2)N1S(=O)(=O)c1ccc(C)cc1 | 8% | 0% | -14%
O=S(=O)(NC1C2CC3CC(C2)CC1C3)c1ccccc1 (stereo not given) | -6% | -2% | 43%[activator]
CCC1CCCCN1C(=O)CCn1ccnc1 (stereo not given) | -5% | 2% | -12%
CCOc1cc(N2CCOCC2)c(OCC)cc1NC(=O)CN1C(=O)C2C3C=CC(C3)C2C1=O (stereo not given) | -15% | 0% | -8%
Fc1ccc2cnc(CCO[C@H]3CCCCO3)cc2c1 | 10% | 5% | -30%
S=C(N/N=C/c1ccc2ncccc2c1)Nc1ccccc1 | 8% | 3% | 6%
O=S(=O)(N[C@H](CO)Cc1ccccc1)c1ccc(Br)cc1F | 9% | -20% | 11%
COCCN(C(=O)c1ccc(N2CCCC2=O)cc1)c1c(N)n(Cc2ccccc2)c(=O)[nH]c1=O | 2% | -6% | 0%
N#CCN=C(c1ccccc1)c1ccccc1 | -2% | -5% | -2%
CC12CCC(C[N+](C)(C)C1)C2(C)C (stereo not given) | 11% | 0% | -17%
Cc1ccc2c(c1)C(=O)C(=O)N2Cc1ccc(Cl)cc1 | ? | -3% | -13%
CCCCn1nc(C(=O)Nc2ccc(-n3cnnn3)cc2)c2ccccc2c1=O | -9% | -7% | ?
Cc1ccc(S(=O)(=O)NCc2ccccc2)cc1C(=O)N1CCN(c2ccccc2)CC1 | 5% | -5% | 3%
COC(=O)C1=C(c2ccc(F)cc2OCc2ccccc2)C[C@@H]2CC[C@H]1N2C(=O)NCc1ccc(F)cc1 | 1% | -9% | -31%
CCOC(=O)c1ccc(N[C@@H]2CCN3C(=O)c4ccccc4[C@@H]3C[C@H]2O)cc1 | 4% | 18% | -17%
COc1ccc2c(c1)CCC/C2=N/OC(=O)c1ccccc1OC | -6% | -15% | 17%
OCC1=C[C@@H](O)C2C=CO[C@@H](O[C@@H]3O[C@H](CO)[C@@H](O)[C@H](O)[C@H]3O)C12 (stereo not given in full) | -10% | -20% | -18%

Part of the list above, as labelled records:
Cc1ccc(NC(=O)CCN2C(=O)NC3(CCCC3)C2=O)c(C)c1
  RE007 growth inh = 6%	SARS PLpro yeast = 6%	2A StopGo = -9%
CCCCC[C@@H]1C=C(C(=O)O)[C@H](c2ccc(F)cc2)N1S(=O)(=O)c1ccc(C)cc1
  RE007 growth inh = 8%	SARS PLpro yeast = 0%	2A StopGo = -14%
O=S(=O)(NC1C2CC3CC(C2)CC1C3)c1ccccc1 (stereo not given)
  RE007 growth inh = -6%	SARS PLpro yeast = -2%	2A StopGo = 43%[activator]

(further entries)
canonical_smiles | RE007 growth inh | SARS PLpro yeast | 2A StopGo
CC(C)NC(=O)NC(=O)CSc1ncccn1 | 0% | -10% | -8%
CC(C)[C@H](NC(N)=O)C(=O)NCCc1ccc(Cl)cc1Cl | -8% | 3% | -18%
Cc1nn(CCCC(=O)Nc2c(F)cc(F)cc2Br)c(C)c1[N+](=O)[O-] | 4% | 1% | -6%
Cc1ccc(/C=C/C(=O)c2ccc([N+](=O)[O-])o2)cc1 | 13% | 0% | ?
CC(C)(C)OC(=O)C[C@@H]1C/C=C\C[C@H](CC(=O)NCCO)C(=O)N[C@@H](c2ccccc2)COC1=O | 1% | 0% | -9%
CC(=O)c1c(C)[nH]c(C(=O)CN2CCN(S(=O)(=O)c3ccc(C(C)C)cc3)CC2)c1C | 6% | -5% | ?
COCC(=O)N(C)C[C@H]1N[C@@](C)(C(=O)OC)[C@H]2C(=O)N(C)C(=O)[C@@H]12 | 2% | 2% | -11%
Cc1ccc(S(=O)(=O)N2CCN(C(=O)c3n[nH]c4ccccc34)CC2)cc1 | -8% | -3% | -28%
CCOC(=O)C1=CC[C@@H](c2cc3ccc(OC)cc3n2C)N(S(=O)(=O)c2ccc(C)cc2)[C@H]1C(=O)OCC | 2% | 5% | -12%
COC(=O)[C@]1(C)N[C@H](c2ccc(-c3ccccc3)cc2)[C@@H]2C(=O)N(C)C(=O)[C@@H]21 | 2% | -14% | -27%
CCC(C)(C)NC(=O)CN(C(=O)c1csnn1)c1cccc2c1CCCC2 | 8% | 0% | -20%
C[C@]12c3[nH]c4cc(-c5ccco5)ccc4c3CCN1C(=O)[C@@H](CC(=O)NCCCn1ccnc1)C[C@@H]2C(=O)N1CCCCC1 | -6% | -11% | -10%
CCOC(=O)c1cc(=O)n2c(nc3ccccc32)[nH]1 | -24% | 1% | 40%[activator]
COc1ccc(C(C)=O)cc1CSc1ccc(S(=O)(=O)N2CCOCC2)cn1 | -15% | -5% | ?
Cc1cc(OCC(=O)OCC(=O)N2c3ccccc3NC(=O)C2(C)C)ccc1Cl | 13% | -2% | -12%
CC(=O)c1ccc(OCC(=O)OCC(=O)NCc2ccco2)cc1 | 24% | -3% | 2%
Cc1ccc(C(=O)OCC(=O)NC2CCCC(C)C2C)cc1S(=O)(=O)N1CCCCC1 (stereo not given) | 25% | -3% | ?
O=C(COC(=O)C1COc2ccccc2O1)Nc1ccc(Cl)cc1 (stereo not given) | -15% | -12% | -10%
CC(OC(=O)c1c[nH]c2ccccc12)C(=O)N1CCCC1 (stereo not given) | 12% | 0% | 0%
COc1ccc(NC(=O)CCCN2C(=O)CN(C)C2=O)cc1Cl | 14% | 5% | 16%
CC1(C)Nc2ccccc2C(=O)N1NC(=O)c1ccccc1 | -5% | 1% | ?
Cc1ccc(CNC(=O)c2ccc(N3CCC4(CC3)CC(c3cccc(Br)c3)=NO4)c(NC(=O)c3ccc(Br)cc3)c2)cc1 | -3% | 6% | -13%
O=C(Nc1ccc(F)cc1F)c1ccc(S(=O)(=O)NCc2ccco2)cc1 | 1% | -2% | 5%
CCOC(=O)C1=CN(Cc2cccc(Br)c2)S(=O)(=O)N(C)C1C (stereo not given) | 6% | -28% | 2%
Cc1ccc(CNS(=O)(=O)NCc2cccs2)cc1 | 10% | 1% | 44%[activator]
CC(C)(C)NC(=O)NC(=O)COC(=O)CNC(=O)c1cc(Cl)cc([N+](=O)[O-])c1 | 1% | -1% | 12%
COc1ccc(NC(=O)N(C)C[C@H]2Oc3c(NC(=O)C4CC4)cccc3C(=O)N([C@H](C)CO)C[C@@H]2C)cc1 | -3% | ? | -9%
CCCCNC(=O)c1cc(C)no1 | 1% | -1% | -2%
CC(=O)c1ccc(S(=O)(=O)NCCC(=O)NC(C)c2ccncc2)cc1 (stereo not given) | -2% | 5% | 16%
C[C@H]1CN([C@@H](C)CO)C(=O)c2cc(NC(=O)C3CCCCC3)ccc2O[C@H]1CN(C)CC1CCCCC1 | 4% | 8% | -20%
O=C(Cn1nc(-c2ccccc2)ccc1=O)Nc1ccc(NC(=O)c2ccccn2)cc1 | 11% | 0% | -8%
Cc1ccc(C(=O)OCC(=O)c2c(N)n(C)c(=O)n(C)c2=O)cc1S(=O)(=O)N1CCOCC1 | 1% | -4% | ?
COc1ccc(C2=CC(=O)C[C@H](c3ccc(OC)cc3)C2)cc1 | -4% | -15% | 28%
Cc1nn(-c2ccccc2)c(C)c1C(=O)OCC(=O)Nc1ccccc1F | -22% | -6% | 17%
CCCc1cc(=O)[nH]c(SCC(=O)Nc2ccc(OC)c(S(=O)(=O)N3CCCCC3)c2)n1 | 8% | -1% | -7%
Cc1ccc(C)c(C(=O)COC(=O)Cn2[nH]c(=O)c3ccccc3c2=O)c1 | -9% | -3% | -19%
CC(C)N(C(=O)[C@H]1CC(CC(=O)NCCCn2ccnc2)C(=O)N2CCc3c([nH]c4ccccc34)[C@]12C)C(C)C (stereo not given in full) | -5% | 4% | -17%
O=C(O)c1cc(O)c2c(c1)[C@@H]([C@H]1c3cc(C(=O)O)cc(O)c3C(=O)c3c(O[C@@H]4O[C@H](CO)[C@@H](O)[C@H](O)[C@H]4O)cccc31)c1cccc(O[C@@H]3O[C@H](CO)[C@@H](O)[C@H](O)[C@H]3O)c1C2=O | 28% | -1% | -3%
CC(=O)c1ccc(OCC(=O)OC(C)C(=O)NC2CCCCC2)cc1 (stereo not given) | -10% | -1% | -13%
COC(=O)[C@H](C(C)C)N(Cc1ccccc1)S(=O)(=O)CCN1CCN(c2ccccc2)CC1 | 4% | -27% | ?
CCCCN(Cc1nc2ccccc2c(=O)[nH]1)C(=O)CN1C(=O)NC2(CCCCC2)C1=O | -5% | -1% | -1%
CC(C)Cn1c(N)c(C(=O)COC(=O)c2c(F)cccc2F)c(=O)n(C)c1=O | -14% | 0% | ?
Cc1cc(Cn2nc(-c3ccccc3C)cc2C(=O)O)on1 | 16% | 1% | -4%
CCCCn1c(N)c(N(CC(C)C)C(=O)c2c(-c3ccccc3)noc2C)c(=O)[nH]c1=O | 23% | 0% | -17%
Nc1n[nH]c(=S)n1/N=C1/C(=O)Nc2ccccc21 | -4% | 2% | 32%[activator]
c1ccc(-c2cncnc2)nc1 | -6% | 2% | 6%
COC(=O)C1=C(c2cccc(OCc3ccccc3)c2)C[C@@H]2CC[C@H]1N2C(=O)NCc1cccc(OC)c1 | 6% | -3% | -16%
CCc1ccc(/C(C)=N/NC(=O)c2ccccn2)cc1 | -1% | 3% | 43%[activator]
Cc1ccc(CN(C)C(=O)COC(=O)CSc2cc(C)c3ccccc3n2)cc1 | 5% | 4% | -13%
COc1ccc(C2=NN(C(=O)CSc3nnnn3C)C(c3ccco3)C2)cc1 (stereo not given) | 11% | 1% | -15%

(continued)
canonical_smiles | RE007 growth inh | SARS PLpro yeast | 2A StopGo
C[C@H](CO)N1C[C@H](C)[C@@H](CN(C)Cc2ccncc2)Oc2c(NS(=O)(=O)c3ccc(Cl)cc3)cccc2C1=O | -23% | 0% | 31%[activator]
Cc1ccc(C)c(N2CCN(C(=O)CCc3nc(-c4ccccc4Br)no3)CC2)c1 | -3% | -16% | 11%
O=C(CN1CCN(S(=O)(=O)c2cccc(Cl)c2)CC1)N1CCCCC1 | -4% | 0% | -19%
CC1(C)C(=O)Nc2ccccc2N1C(=O)COC(=O)CNS(=O)(=O)c1ccc(F)c(F)c1F | -5% | -1% | 1%
CCN1C[C@@H]2[C@@H]3C(=O)N(C)C(=O)[C@@H]3[C@](CC)(C(=O)OC)N2C1=NC | 2% | 3.5µM* | 2%
O=C(C[n+]1ccccc1)NNc1ccccc1 | 167% | 1% | -14%
O=C(COC(=O)Cc1ccc(F)cc1)NC(=O)NC1CCCC1 | 12% | 3% | -18%
Cc1cccc(NC(=O)Nc2ccncc2)c1 | 0% | 8% | 65%[activator]
Cc1noc(C)c1NC(=O)N(C)C[C@H]1Oc2ccc(NC(=O)CCC(F)(F)F)cc2C(=O)N([C@H](C)CO)C[C@@H]1C | -10% | 3% | 5%
CCCN1C(C)C(C(=O)OCC)=CN(Cc2ccc(Br)cc2)S1(=O)=O (stereo not given) | 4% | -34% | ?
CCOC(=O)c1c(C)[nH]c(C(=O)CN(C)CC(=O)Nc2ccccc2Cl)c1C | -14% | 6% | -17%
NC(=O)CSc1ccc(S(=O)(=O)N2CCOCC2)cn1 | 3% | 0% | -11%

Of the compounds above, six have an aryl thioether with sulfur outside any ring.
canonical_smiles | RE007 growth inh | SARS PLpro yeast | 2A StopGo
CC(C)NC(=O)NC(=O)CSc1ncccn1 | 0% | -10% | -8%
COc1ccc(C(C)=O)cc1CSc1ccc(S(=O)(=O)N2CCOCC2)cn1 | -15% | -5% | ?
CCCc1cc(=O)[nH]c(SCC(=O)Nc2ccc(OC)c(S(=O)(=O)N3CCCCC3)c2)n1 | 8% | -1% | -7%
Cc1ccc(CN(C)C(=O)COC(=O)CSc2cc(C)c3ccccc3n2)cc1 | 5% | 4% | -13%
COc1ccc(C2=NN(C(=O)CSc3nnnn3C)C(c3ccco3)C2)cc1 (stereo not given) | 11% | 1% | -15%
NC(=O)CSc1ccc(S(=O)(=O)N2CCOCC2)cn1 | 3% | 0% | -11%

Bioassay records from PubChem BioAssay.

Some of the compounds tested (hit frequency here may not be typical).
